NPR1 antag: blocks ANP-stimulated signaling of human Npr1 receptor. hit rate 1.6% among 76,000. P16066. AID 1347048. HEK293 hNpr1 GloSensor cGMP, ANP-stimulated luminescence. Potency, µM (titrated, usually from 46.3 µM), without a hit: at the highest dose activity change, negative = inhibition, most hits filed as inhibitors; active = well fitted inhibition curve with a large enough effect; inconclusive = small, poorly fitted or top-dose-only effect; inactive = no such curve, though single readings can be large or run the other way;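 note: nearly all actives have a fitted effect of over 60% in size; nearly all hits also lower the signal before the agonist is added; a reference antagonist and vehicle were the controls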
Target sequence (P16066 whole entry, looked up): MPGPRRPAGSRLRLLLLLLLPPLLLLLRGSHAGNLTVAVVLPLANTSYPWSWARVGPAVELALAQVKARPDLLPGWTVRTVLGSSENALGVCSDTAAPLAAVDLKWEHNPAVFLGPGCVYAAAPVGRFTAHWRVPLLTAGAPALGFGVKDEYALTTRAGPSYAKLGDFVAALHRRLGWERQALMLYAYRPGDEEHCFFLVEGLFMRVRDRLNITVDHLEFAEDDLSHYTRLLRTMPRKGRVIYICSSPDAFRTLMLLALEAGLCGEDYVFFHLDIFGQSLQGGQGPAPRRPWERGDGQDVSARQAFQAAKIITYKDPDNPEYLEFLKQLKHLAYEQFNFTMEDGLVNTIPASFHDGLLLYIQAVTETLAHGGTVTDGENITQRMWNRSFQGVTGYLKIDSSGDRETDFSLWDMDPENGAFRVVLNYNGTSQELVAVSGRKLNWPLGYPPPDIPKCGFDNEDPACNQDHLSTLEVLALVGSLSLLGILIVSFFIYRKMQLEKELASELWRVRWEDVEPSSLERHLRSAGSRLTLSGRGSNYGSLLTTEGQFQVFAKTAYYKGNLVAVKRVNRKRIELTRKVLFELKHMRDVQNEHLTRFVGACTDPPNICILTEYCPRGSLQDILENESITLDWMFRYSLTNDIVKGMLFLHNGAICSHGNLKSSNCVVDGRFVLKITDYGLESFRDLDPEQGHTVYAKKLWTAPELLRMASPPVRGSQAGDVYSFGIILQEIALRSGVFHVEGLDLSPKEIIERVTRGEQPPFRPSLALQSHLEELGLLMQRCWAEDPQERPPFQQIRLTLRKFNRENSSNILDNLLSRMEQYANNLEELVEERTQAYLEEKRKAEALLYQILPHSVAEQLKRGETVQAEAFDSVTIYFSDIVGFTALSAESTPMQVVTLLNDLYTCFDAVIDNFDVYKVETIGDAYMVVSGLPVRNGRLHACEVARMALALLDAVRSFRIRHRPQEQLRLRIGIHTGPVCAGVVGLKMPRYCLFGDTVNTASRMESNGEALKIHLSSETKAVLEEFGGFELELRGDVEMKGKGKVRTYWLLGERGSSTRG
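HEK293 cells stably expressing human Npr1 and cGMP GloSensor pGS-40F, loaded 2 h with 2% GloSensor reagent, given compound 30 min at room temperature. Luminescence read before and 20 min after 0.1 nM hNppA.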
Active calls of the source: *; ? = inconclusive; & = joins results of further samples; [ ] = remark or other dose. % is set by controls: 0 for no effect and ±100 for the full control effect; potency is the fitted concentration of half-maximal effect.

NPR1 antag | molecule
0% | Cn1c(CCNC(=O)CC2CCOC3(CCN(S(C)(=O)=O)CC3)C2)nc2ccccc21 (configuration not stated)
2% | O=C(NCc1ccc(Cl)cc1)C1CC(=O)N(c2n[nH]c3cccc(F)c23)C1 (configuration not stated)
-2% | COc1ccc(N2CC(C(=O)NCc3ccc4c(c3)OCO4)NC2=O)cc1 (configuration not stated)
? | Cc1c(CN2CCOc3ccc(C(=O)NCc4ccccc4F)cc3C2)cnn1C
2% | O=C1CC(c2ccccc2)N(S(=O)(=O)c2cccc3cccnc23)CCCCCCN1 (configuration not stated)
0% | Cc1ccccc1CC(=O)N(C)CC1CCOCC1
? | Cc1ccc(CNC(=O)c2cc3c(s2)CCN(C(=O)c2ccccc2)C3)cc1
2% | Cc1ccccc1C(=O)N1CCCN(C)c2ccccc21
-2% | O=C(c1cnccn1)N1CCC(c2nc(C3CC3)no2)C1 (configuration not stated)
-9% | COc1nccnc1NC1CCN(C(=O)c2c[nH]c3ccccc23)CC1
-1% | CC(C)C(=O)N1CCCC(c2nn(C)c(=O)n2-c2ccccc2)C1 (configuration not stated)
0%[70.6 µM] | O=C1COc2ccc(N3CCOCC3)nc2CN1CCOc1ccccc1
0% | COC(=O)[C@H](Cc1ccc(OC)cc1)NC(=O)[C@@H]1CN(C(=O)c2cccc(F)c2)CCN1C(=O)C1CCNCC1
-18% | CC1=C(C(=O)OC(C)C)C(c2cccs2)N2C(CC(=O)NC3CC3)=CSC2=N1 (configuration not stated)
-3% | Cc1noc(C)c1CC(=O)NC1CCc2nn(C)c(=O)n2CC1 (configuration not stated)
-1% | CC(C)C1c2nccn2CCCN1C(=O)c1ccc(C#N)cc1 (configuration not stated)
7% | CN(C)C[C@@H]1CN(c2ccncn2)C[C@H]1NC(=O)COc1ccccc1
4% | Cc1ccc(C(=O)NCC(=O)N2CCCCCCNC(=O)CC2c2ccccc2)s1 (configuration not stated)
2% | Cc1cc(=O)n(CC(=O)N2CCc3ccccc32)c(N2CCc3ccccc3C2)n1
3%[70.6 µM] | O=C(C1CC1)N1C[C@@H]2OCC(=O)N(Cc3ccncc3)[C@@H]2C1

NPR1 antag | molecule
-1% | Cc1cnc(-c2ccccc2)n1C1CCN(C(=O)c2ccco2)CC1
3%[70.6 µM] | COCCCNc1cc(-c2cccs2)nc2c(C)noc12
9% | COCc1cc(CNC(=O)c2ccc(C3CCNC3)cc2)[nH]n1 (configuration not stated)
2% | CN(C)C(=O)C1CN(C(=O)c2cccc(Cl)c2)CC12CCOCC2 (configuration not stated)
16% | COCCOc1ccc2c(n1)CCN(C(=O)CCn1nc(C)cc1C)C2
-15%[70.6 µM] | Cc1ccccc1-c1[nH]nc2ncc(-c3ccccc3O)nc12
5% | CCn1ccnc1CN1CCN(C2CCCCC2)C(CCO)C1 (configuration not stated)
0%[70.6 µM] | N#CC1CCN(C(=O)C2CN(c3ccc(F)cc3)C(=O)N2)CC1 (configuration not stated)
3% | O=C(NCc1cc2n(n1)CCNC2)c1ccc2c(c1)ncn2CCO
1%[70.6 µM] | CN1C[C@@H](NS(=O)(=O)c2ccccc2)C[C@H]1c1nc(Cc2ccccc2)no1
0% | O=C(COc1ccccc1)N1CC(c2nnc(-c3ccncc3)o2)C2(CCOCC2)C1 (configuration not stated)
-16% | O=C(Cc1ccc(F)cc1)Nc1ccc2ncnc(N3CCCCC3)c2c1
9%&7%[70.6 µM] | c1cncc(-c2nnc3n2CCN(CC2CCCCC2)C3)c1
-1% | CCCC(=O)N1CCC2(CC1)NCCc1c2[nH]c2ccccc12
? | Cc1ccc(C(=O)N2CCCN(c3cc(-c4ccc(Cl)cc4)[nH]n3)CC2)s1
0% | CCC(=O)Nc1ccc(C2(C(=O)NC3CC3)CCCCC2)cc1
4% | N#Cc1ccc(S(=O)(=O)N2CCCCCCNC(=O)[C@@H]3CCC[C@@H]32)cc1
-1%[70.6 µM] | COc1ccc(O[C@H]2COCCN(C(=O)c3cccnc3)C2)cc1
-2% | COCCN1CCCCCC(O)c2cc(C(=O)Nc3cc(C)ccc3OC)ccc21 (configuration not stated)
-10% | COc1ccc(CNC(=O)C2CCN(C(=O)c3ncn4c3COC(c3ccc(C)cc3)C4)CC2)cc1 (configuration not stated)

Sorted by the number under NPR1 antag (falling): six from the list above
SMILES	NPR1 antag
CCn1ccnc1CN1CCN(C2CCCCC2)C(CCO)C1 (configuration not stated)	5%
Cc1ccc(C(=O)NCC(=O)N2CCCCCCNC(=O)CC2c2ccccc2)s1 (configuration not stated)	4%
O=C(NCc1cc2n(n1)CCNC2)c1ccc2c(c1)ncn2CCO	3%
CC(C)C1c2nccn2CCCN1C(=O)c1ccc(C#N)cc1 (configuration not stated)	-1%
O=C(Cc1ccc(F)cc1)Nc1ccc2ncnc(N3CCCCC3)c2c1	-16%
CC1=C(C(=O)OC(C)C)C(c2cccs2)N2C(CC(=O)NC3CC3)=CSC2=N1 (configuration not stated)	-18%

Next structures
NPR1 antag | molecule
0% | COCc1ncc(C)n1CCNC(=O)Nc1ccc(C)c(C)c1
3%[70.6 µM] | COC(=O)CN1C(=O)[C@@H]2C[C@@H](O)CN2C2(CN(Cc3ccc(OC)cc3)C2)C1=O
? | Cc1cc(CNC(=O)C2(C(N)=O)CC2)c2[nH]c(-c3ccccc3)c(C)c2c1
2% | Cc1noc([C@H]2CCN(CC3CC3)C[C@H]2NC(=O)C2CC2)n1
-12% | CN(CC1CCOCC1)C(=O)c1cccc(F)c1
-7% | COC[C@@H]1[C@H](C(=O)N2CCc3ccccc32)CCC(=O)N1C
1%[70.6 µM] | COC[C@H]1CCCN1Cc1nc(C2(O)CCN(C3CCN(C)CC3)CC2)cs1
-23% | CN(C)C(=O)c1ccc(-c2ccc(N3CCCCCC3)nc2)cc1
-2% | CCN(C1CCOCC1)C1CN(C(=O)c2ccco2)C1
3% | COc1cccc(CNC(=O)C2CCc3sc(C(=O)N(C)C)cc3C2)c1 (configuration not stated)
4% | O=C(Cc1cccc(F)c1)N1C[C@@H](CO)[C@H](c2ccccn2)C1
6% | COc1ccc(C2Cn3nnc(-c4noc(CCc5ccccc5)n4)c3CO2)cc1 (configuration not stated)
-1% | CN(Cc1nccn1C)C(=O)C1CCC(=O)N(CCc2ccccn2)C1 (configuration not stated)
4% | CC(C)Oc1ccc2c(NC(=O)C3CCOC3)nn(CC(F)(F)F)c2c1 (configuration not stated)
-2% | CN(CCc1ccccn1)[C@@H]1[C@H](O)[C@H](CO)O[C@@H]1CNC(=O)Nc1ccc(OC(F)(F)F)cc1
4%[70.6 µM] | O=C(O)CCCC(=O)N1CCN2C(=O)c3cc(-c4ccco4)ccc3NC(=O)[C@@H]2C1
1% | COc1ccc(C(=O)N[C@@H]2CCC[C@@H]2C(=O)NC2CCN(C)CC2)cc1
2% | O=C(c1cccnc1)N1CCC2(CC1)CC(OCC1CC1)CCO2 (configuration not stated)
? | COc1ccc(Cl)cc1C(=O)N1CCC2(CC1)NC(=O)N(c1ccccc1Cl)N2
2% | Cc1nnc2n1CCC(N(C)C(=O)CCc1c[nH]c3ccccc13)CC2 (configuration not stated)

NPR1 antag | molecule
3% | Cc1ccc2[nH]c3c(c2c1)CCCC3NC(N)=O (configuration not stated)
5% | COc1cccc(NC(=O)Cn2cccc2-c2nc(-c3ccc(OC)c(F)c3)no2)c1
0% | Cc1noc(-c2cn(C3CCCN(C(=O)c4ccc5c(c4)OCO5)C3)nn2)n1 (configuration not stated)
2% | CCn1ccc(C(=O)N2CCc3nc(NC)nc(C(=O)N4CCCC4)c3C2)n1
-4% | Cc1cccc(OCC(=O)N2CCN(c3cc(C(F)(F)F)nc(C)n3)CC2)c1
-12% | COc1ccc(S(=O)(=O)N2CCCC(Cc3nncn3C)C2)cc1 (configuration not stated)
-2% | CC(O)c1cc2n(n1)CCCN(C(=O)c1ccc(-c3nnn(C)n3)cc1)C2 (configuration not stated)
5% | Cn1cnc(S(=O)(=O)N2CCCN(C(=O)c3ccncc3)CCNC(=O)CC2c2ccccc2)c1 (configuration not stated)
1% | O=C(Cn1ccc(=O)[nH]c1=O)N1CCN(Cc2ccccc2)CC(O)C1 (configuration not stated)
-14% | O=C(NC1CCCCC1)C1CCc2ncc(-c3ccsc3)n2C1 (configuration not stated)
0% | COc1ccc(C(=O)N2CCC3(CC2)NCCc2c3[nH]c3ccccc23)cc1F
0% | O=C(Nc1ccc(-c2nnc3n2CCCC3)cc1)c1ccn[nH]1
1% | N#Cc1ccc(N2CCN(C(=O)CNC(N)=O)CC2=O)cc1
-26% | C=CCNC(=O)CCc1c(C)nn(-c2ccc(F)cc2)c1Oc1ccccc1
-2% | CC1(C)C(=O)N(Cc2ccccc2)[C@H]2CN(Cc3cccc(C(=O)O)c3)C[C@H]2[S+]1(=O)[O-]
-4% | CCCCCNC(=O)c1ccc(Cn2ccn3nc4c(c3c2=O)CCCC4)cc1
-15% | COC(=O)N1CCc2nc(-c3ccc(OC)cc3)nc(-c3ccccc3)c2C1
4% | CN(C)C(=O)c1cccnc1OC1CCN(C(=O)Nc2ccc(F)cc2F)C1 (configuration not stated)
3.5µM* | O=C(Nc1ccc(F)cc1)C1CCc2nc(N3CCN(C(=O)C4CCC4)CC3)sc2C1 (configuration not stated)
-2% | Cn1cc2c3c(cccc31)CN(C(=O)c1cccs1)CC2

NPR1 antag | molecule
4% | CCOC(=O)c1ccc(NC(=O)CN2C(=O)NC3(CCOCC3)C2=O)cc1
-24% | Cc1cc(S(=O)(=O)N2CCCC(Cn3c(C)nc4cccnc43)C2)ccc1Cl (configuration not stated)
5% | O=C(C1CC2(CCNCC2)CN1)N1CCN(c2nc3ccccc3o2)CC1 (configuration not stated)
? | Cc1cc(Cl)ccc1OCC(=O)N1[C@@H]2CC[C@H]1CC(NC(=O)c1ccncc1)C2 (some centres not stated)
1% | COCCc1noc([C@@H]2CN(C(=O)CC3=CCCCC3)C[C@H]2CO)n1
-5% | CCOc1ccc(NC(=O)Cn2c(C)cc3nc4n(c(=O)c32)CCC4)cc1
-2%[70.6 µM] | CC(=O)Nc1cc(-c2cc(C(=O)NCc3cccnc3)c3c(c2)N(C)CCO3)ccn1
3%[70.6 µM] | N#Cc1ccc2nc(CO[C@H]3CN(C(=O)c4cccnc4)C[C@H]3F)[nH]c2c1
4% | CCC(C)Oc1ccccc1CN1CCC(CO)(CN2CCCC2)CC1 (configuration not stated)
-7% | O=C(Nc1ccc2ncnc(N3CCCCC3)c2c1)C1CCCCC1
? | O=C(Cc1cccc(F)c1)N1CCCN(c2cc(-c3ccc(Cl)cc3)[nH]n2)CC1
-5% | CCOc1ccccc1C(=O)NCC(=O)N1CCN(c2ccccn2)CC1
0% | O=[S+]1([O-])NC2(CCCN(Cc3ccc(F)cc3)C2)CNc2ccccc21 (configuration not stated)
-1%[70.6 µM] | Cc1ccc2nc(CO[C@H]3CN(Cc4cnn(C)c4)C[C@H]3F)[nH]c2c1
1% | CCOc1ccc(CC(=O)N2CCC(n3cc(-c4nc(C(C)C)no4)nn3)C2)cc1 (configuration not stated)
-17% | Cc1ccc(C2=NC3(CCN(C(=O)COc4cccc(C)c4)CC3)ON2)cc1
0% | COc1ccccc1OC(C)(C)C(=O)N1CC(C)(C)[C@@](C)(O)C1
3% | COc1ccc2[nH]c3c(c2c1)CCNC31CCN(Cc2scnc2C)CC1
-2% | C=CCCC(CN1CCCC1)Oc1cc(N2CCOCC2)ncn1 (configuration not stated)
1% | Cc1cc(CN(C)C(=O)C2CCCN(C3CCN(Cc4ccncc4)CC3)C2)n[nH]1 (configuration not stated)

As entered above:
Result for O=C(Nc1ccc2ncnc(N3CCCCC3)c2c1)C1CCCCC1 under NPR1 antag: -7%
Result for O=[S+]1([O-])NC2(CCCN(Cc3ccc(F)cc3)C2)CNc2ccccc21 (configuration not stated) under NPR1 antag: 0%
Result for Cc1ccc2nc(CO[C@H]3CN(Cc4cnn(C)c4)C[C@H]3F)[nH]c2c1 under NPR1 antag: -1%[70.6 µM]
Result for O=C(C1CC2(CCNCC2)CN1)N1CCN(c2nc3ccccc3o2)CC1 (configuration not stated) under NPR1 antag: 5%
Result for CCOc1ccc(NC(=O)Cn2c(C)cc3nc4n(c(=O)c32)CCC4)cc1 under NPR1 antag: -5%

More results.
NPR1 antag | molecule
3% | O=C(c1n[nH]c2ccccc12)N1CCCC1c1nc(CCOCC2CCOCC2)no1 (configuration not stated)
2% | CCOc1ccc(S(=O)(=O)N2CCN(C3(CC)CCN(C(=O)NC)C3)CC2)cc1 (configuration not stated)
-4% | CCOCc1nc(C2CCCN(C(=O)c3ccccc3C)C2)no1 (configuration not stated)
2% | Cc1ccc(CN2CCc3nc(N4CCN(C)CC4)[nH]c(=O)c3CC2)c(C)c1
-3% | COc1cccc(CN2CCCC3(CCN(Cc4ccccc4)C3)C2=O)c1OC (configuration not stated)
0% | C[C@@H]1CN(C(=O)c2csc(CN(C)C)n2)C[C@@]1(O)C1CCC1
1% | CC(C)c1nc2c(c(-c3ccc(Cl)cc3)n1)CN([S+](=O)([O-])c1cccc(C(F)(F)F)c1)CC2
-25% | COc1ccc(C(=O)N2CCn3c(nn(-c4ccncc4)c3=O)C2)cc1
1% | COc1cccc(-c2ncc(CNC(=O)[C@H]3CC[C@@H](N)C3)s2)c1
0%[70.6 µM] | COc1cccc(-c2ccnc(-c3nnc(C)n3C3CCCCC3)c2)c1
-11% | Cc1cc(C(F)(F)F)nn1CCNC(=O)c1csc(-c2cccs2)n1
1% | CO[C@H]1C(=O)N(C(C)C)[C@H]1C1CCN(S(=O)(=O)c2ccc3c(c2)OCCO3)CC1
2% | COCCc1noc(-c2ccccc2OC2CN(C(=O)Nc3ccccc3)C2)n1

From PubChem BioAssay

Not all compounds are listed; count on the stated rates, not on these rows.
